Sfp PPTase inh = qHTS Assay for Inhibitors of Bacillus subtilis Sfp phosphopantetheinyl transferase (PPTase); AID 1490, 2009; 4'-phosphopantetheinyl transferase ffp (Bacillus subtilis), Q9F4F7; 3.5% of 310,000 active; Potency, µM, for the others: max response, negative = inhibition, actives largely listed as inhibitors; Biochemical Sfp PPTase activity, qHTS; active = well fitted inhibition curve with a large enough effect; inconclusive = small, poorly fitted or top-dose-only effect, or another doubt; inactive = no such curve, though single readings can be large or run the other way;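 note: the enzyme is Sfp with the accession as filed and its product quenches rhodamine fluorescence; potency is the fitted concentration of half-maximal effect; 0% = enzyme reaction without inhibitor and -100% = no enzyme wells; top concentration of the series not given in the record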
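Compounds were incubated with enzyme (final 15 nM) for 15 min at room temperature before substrate addition started the reaction. Fluorescence at 525 nm excitation, 598 nm emission was recorded immediately and after 30 minutes.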
PINK1 expr mod = A Quantitative High throughput Screen to Identify Chemical Modulators of PINK1 Expression; 0.2% of 410,000 active; PINK1 immunofluorescence, high-content cytometry, 24 h; Potency, µM (top dose mostly 76.6 µM), without a hit: at the top dose activation (PINK1 increase), hits mostly activators; active = well fitted activation curve with a large enough effect; inconclusive = small, poorly fitted or top-dose-only effect; inactive = flat fitted curve, though single readings scatter; cell line not stated here;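 note: potency is the fitted concentration of half-maximal effect; % of control where 0% means no effect; nearly all actives have a fitted effect of over 65% in size; a mitochondrial uncoupler was the plate control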
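Stable cell line treated 24 h with compounds at 5 concentrations (CCCP controls), then fixed and immunostained for PINK1 plus nuclear and cell stains; PINK1 immunofluorescence quantified by laser-scanning microplate cytometry.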
CtBP-E1A inh = qHTS Assay for Inhibitors of the CtBP/E1A Interaction; CtBP / adenovirus E1A interaction (AlphaScreen); AlphaScreen GST-E1A/His-CtBP binding, 1536-well; hits give low values; control for the full effect not named in the record; activity change, % (no concentration beside the values); 0.49% of 340,000 active; AID 651724, 2012; in the data active means activity change below about -65%; inconclusive means about -30% to -65%; inactive means above about -30%; note: % is set by controls: 0 for no effect and ±100 for the full control effect; compound concentration not given in the record
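AlphaScreen with 125 nM GST-E1A and 125 nM His-CtBP (5X stocks) in Tris pH 8.0, 300 mM NaCl, BSA, Tween 20, TCEP. Compounds preincubated 2 h at 37 deg C, then glutathione donor/nickel acceptor beads added for 1 h at 37 deg C in dark.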
TRPV1 potentiator = HTS Assay for Compounds that Act as Potentiators of the Vanilloid Receptor 1. 0.02% of 320,000 active. TRPV1-expressing cells, Fluo-8 calcium influx, capsaicin EC20 potentiation; host cell line not named in the record; control for the full effect not named in the record. potentiation, % at 8.33 µM. Transient receptor potential cation channel subfamily V member 1 (Homo sapiens), Q8NER1; active means potentiation above 80%; inconclusive means 30% to 80%; inactive means below 30%; note: 0% is about no effect
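TRPV1-expressing cells were cultured overnight at 35.5C and loaded with Fluo-8 calcium dye for 40 to 90 min at room temperature. After a 10 s baseline, compound was added and calcium influx was read kinetically for 3 min (ex 480/em 520 nm).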
D2 ag = Beta-Arrestin HTS for Positive Allosteric Modulators of the Human D2 Dopamine Receptor: Agonists. D(2) dopamine receptor (Homo sapiens), P14416. DiscoveRx PathHunter D2 beta-arrestin, luminescence, 90 min; 100% = 57 uM dopamine signal. activation, % (test concentration not listed). 0.084% of 360,000 active. AID 624465, 2012; in the data active = activation above about 40%; inconclusive = about 15% to 40%; inactive = below about 15%; note: compound concentration not given in the record; the text of the record calls up to 30% inactive
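DiscoveRx PathHunter D2 beta-arrestin cells (2,100/well) attached overnight, then compound-stimulated 90 min at 37 C in HBSS/10 mM HEPES/0.1% Tween-20 buffer; beta-galactosidase complementation read by luminescence after 1 h at ambient temperature. Dopamine 57 uM final (EC100) as control.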
Six1-Eya2 inh = qHTS Assay for Inhibitors of the Six1/Eya2 Interaction | Homeobox protein SIX1 (Homo sapiens) + Protein phosphatase EYA2 (Homo sapiens), … | AlphaScreen GST-Six1/His-Eya2 binding, biochemical; hits give low values; control for the full effect not named in the record | activity change, % (concentration not given with the values) | 0.56% of 360,000 active; in the data active = activity change below about -65%; inconclusive = about -30% to -65%; inactive = above about -30%; note: % is set by controls: 0 for no effect and ±100 for the full control effect
Target sequence (O00167 whole entry, looked up): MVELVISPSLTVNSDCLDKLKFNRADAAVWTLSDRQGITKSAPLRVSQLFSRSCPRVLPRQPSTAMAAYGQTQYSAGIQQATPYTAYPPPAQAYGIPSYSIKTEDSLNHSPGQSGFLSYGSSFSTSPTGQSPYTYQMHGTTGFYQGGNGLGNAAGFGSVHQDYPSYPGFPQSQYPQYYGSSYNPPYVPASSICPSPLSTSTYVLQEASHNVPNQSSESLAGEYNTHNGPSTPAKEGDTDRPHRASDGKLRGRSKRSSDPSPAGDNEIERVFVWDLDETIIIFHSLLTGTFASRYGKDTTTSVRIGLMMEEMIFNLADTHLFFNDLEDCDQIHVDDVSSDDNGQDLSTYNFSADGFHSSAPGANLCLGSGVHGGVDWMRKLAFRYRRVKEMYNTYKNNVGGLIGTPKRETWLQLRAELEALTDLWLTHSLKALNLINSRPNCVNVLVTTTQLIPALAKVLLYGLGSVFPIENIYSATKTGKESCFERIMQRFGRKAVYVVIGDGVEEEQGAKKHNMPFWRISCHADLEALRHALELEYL
Target sequence (Q15475 whole entry, looked up): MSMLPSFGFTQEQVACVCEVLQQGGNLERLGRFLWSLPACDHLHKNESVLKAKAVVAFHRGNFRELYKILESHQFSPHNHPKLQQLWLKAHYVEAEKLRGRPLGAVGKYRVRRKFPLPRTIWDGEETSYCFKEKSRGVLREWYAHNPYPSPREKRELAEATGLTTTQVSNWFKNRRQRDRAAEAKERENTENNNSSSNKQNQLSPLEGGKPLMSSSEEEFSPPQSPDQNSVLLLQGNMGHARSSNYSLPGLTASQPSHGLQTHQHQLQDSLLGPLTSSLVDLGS
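Six1/Eya2 binding was read as AlphaScreen signal after compounds were pinned into GST-Six1 plus His-tagged Eya2 (5X stock 250/500 nM) in pH 8.0 Tris/NaCl/TCEP buffer, beads added, then incubated 1 h, 37 C, dark.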
D2 potentiator = Beta-Arrestin HTS for Positive Allosteric Modulators of the Human D2 Dopamine Receptor: Potentiators; D(2) dopamine receptor (Homo sapiens), P14416; DiscoveRx D2 beta-arrestin cells, luminescence, 90 min; 100% = 57 uM dopamine signal; potentiation, % (concentration not given with the values); 0.23% of 360,000 active; AID 624464, 2012; active = potentiation of 50% or more; inconclusive = 30% to 50%; inactive = 30% or less;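 note: compound concentration not given in the record; tested on top of an EC20 dose of dopamine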
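PathHunter beta-arrestin assay in DiscoveRx D2 cells. Compounds were added with an EC20 of dopamine (50 nM final) for 90 min at 37 deg C. Luminescence was read 1 h after detection reagent, with 57 uM dopamine as the EC100 control.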
The depositor's hits bear a star; ? = inconclusive; / = not tested or not shown; [ ] = dose if it differs, or a comment.

SMILES	Sfp PPTase inh	PINK1 expr mod	CtBP-E1A inh	TRPV1 potentiator	D2 ag	Six1-Eya2 inh	D2 potentiator
CCCCNS(=O)(=O)c1ccc2nc(SCC(=O)Nc3cc(C)cc(C)c3)[nH]c2c1	20%	?	-7	2	-0.9	-4	-4
COc1cc(SC)ccc1C(=O)Nc1ccc(OCC(=O)N2CCOCC2)cc1	10%	1.3%	0	14	-2.8	-5	-33
O=C1NC(c2ccc(-c3ccccc3[N+](=O)[O-])o2)C(C(=O)c2ccc(Cl)cc2)C(O)(C(F)(F)F)N1 (stereo unspecified)	-7%	-1.7%	-21	16	14	-6	55*
O=C(NCC1CCN(Cc2ccccc2)CC1)[C@H]1O[C@@H](n2ccc(=O)[nH]c2=O)[C@H](O)[C@@H]1O	/	-1.2%	10	/	/	1	/
COc1ccc(/C=C2\SC(=S)N(CC(=O)N3CCN(C)CC3)C2=O)cc1	-2%	0.0%	-3	24	-0.6	-3	-5
Cc1cc(C)cc(SCc2noc(C(=O)NCCCN3CCOCC3)c2C(=O)NCCCN2CCOCC2)c1	-6%	1.9%	/	?	-1.0	0	-12
O=C(CCCn1c(=O)[nH]c2cc(Cl)ccc2c1=O)NCCCN1CCN(c2ccc(F)cc2)CC1	-14%	0.1%	2	7	-2.0	-6	-22
COC(=O)c1ccsc1NC(=O)c1ccccc1	-3%	0.7%	15	-9	0.0	1	-1
O=C(NCCCNCc1ccccc1)/C(=N\O)c1ccccc1	9%	-0.8%	14	6	-1.5	-3	-20
Cc1cc(N2CCOCC2)n2ncc(-c3ccc(Cl)cc3)c2n1	21%	5.0%	2	5	-3.2	9	-1
CCS(=O)(=O)N1CCN(c2ccc(C(=O)NC3C4CC5CC(C4)CC3C5)cc2[N+](=O)[O-])CC1 (stereo unspecified)	5%	2.3%	1	-3	2.0	1	-8
O=C(O)/C=C/C(=O)NC1CCCCC1	?	-2.0%	-5	2	-4.6	1	-8
COc1cc(C(=O)Nc2ccc(NC(=O)c3ccccc3)nc2)cc(OC)c1OC	9%	2.4%	-2	24	1.7	-12	-1
O=C(NCCc1ccccc1F)C1CCCN1S(=O)(=O)c1ccc2ccccc2c1 (stereo unspecified)	21%	4.1%[38.3 µM]	-20	?	-7.3	-13	-14
CCc1ccccc1NC(=O)c1cc(S(=O)(=O)N(C)C)ccc1N1CCCC1	19%	0.5%	-2	24	0.5	-3	-23
COC(=O)C1=C(C)Nc2nnnn2C1c1cccnc1 (stereo unspecified)	-2%	2.3%	3	-2	-2.0	-5	-3
COC(=O)C(CCCCN1C(=O)C2C3C=CC(C3)C2C1=O)N1C(=O)C2C3C=CC(C3)C2C1=O (stereo unspecified)	-2%	-1.3%	-2	-5	0.2	0	-2
Cc1cc(=O)oc2c(C)c(OCC(=O)Nc3cccnc3)ccc12	31%[activator]	-0.4%	2	6	2.7	1	0
O=C(COC(=O)c1ccc(Br)o1)NCCNC(=O)COC(=O)c1ccc(Br)o1	/	1.0%	-4	-3	-1.0	6	8
CC1=NN(c2ccccc2)C(=O)/C1=C/c1c(O)n(-c2ccc(F)c(Cl)c2)[nH]c1=O	?	0.5%	1	0	-8.9	-14	-25
CCOC(=O)c1ccccc1N/C=C/C(=O)c1ccccc1	/	-0.5%	3	/	0.0	5	-29
CC(C)OC(=O)C1=C2SCC(=O)N2C(N)=C(C#N)C1	3%	-1.0%	-3	3	-1.2	3	-18
CCCNC(=O)N(C)C[C@@H]1Oc2cc(C#C[C@H](C)O)ccc2S(=O)(=O)N([C@H](C)CO)C[C@H]1C	/	-1.1%	-22	/	2.9	7	5
CCCN(CCC)C(=O)Cn1c(=O)c2ccccc2n2c(=S)sc(-c3ccccc3C)c12	-1%	1.9%	8	-4	1.5	1	-14
COc1ccc2oc(=O)c(C(=O)N3CCCc4ccccc43)cc2c1	9%	-5.8%[38.3 µM]	10	-14	-0.1	3	-10
O=C(NCCCn1ccnc1)C(Cc1ccccc1)N1C(=O)c2ccccc2C1=O (stereo unspecified)	56µM*	-0.2%	-9	8	-1.3	5	-6
O=C(c1ccccc1)N1CCN(CCc2ccccc2)CC1	5%	1.3%	-7	-4	-3.9	2	-4
CNc1nc(-c2ccc3c(c2)CCN3C(=O)c2ccccc2F)c(C)s1	22µM*	3.5%	-7	27	-0.2	-4	-2
O=S(=O)(NCc1ccccc1F)NCc1ccccc1F	15%	1.2%	5	2	0.5	5	0
CC1CCN(C(=O)c2[nH]cnc2C(=O)NCc2ccc(CNC(=O)OC(C)(C)C)cc2)CC1	/	0.2%	6	10	1.4	-3	-4

Ordered by SMILES length (lowest first): some entries from above
SMILES	Sfp PPTase inh	PINK1 expr mod	CtBP-E1A inh	TRPV1 potentiator	D2 ag	Six1-Eya2 inh	D2 potentiator
CCOC(=O)c1ccccc1N/C=C/C(=O)c1ccccc1	/	-0.5%	3	/	0.0	5	-29
Cc1cc(=O)oc2c(C)c(OCC(=O)Nc3cccnc3)ccc12	31%[activator]	-0.4%	2	6	2.7	1	0
CNc1nc(-c2ccc3c(c2)CCN3C(=O)c2ccccc2F)c(C)s1	22µM*	3.5%	-7	27	-0.2	-4	-2

Further results follow.
SMILES	Sfp PPTase inh	PINK1 expr mod	CtBP-E1A inh	TRPV1 potentiator	D2 ag	Six1-Eya2 inh	D2 potentiator
c1ccc(-n2c(SCc3ccncc3)nnc2-c2ccco2)cc1	28µM*	-2.8%	-7	28	0.5	9	-29
Cn1c(SCC(=O)Nc2ccc(Br)cn2)nnc1C1CC1	16%	2.7%	3	5	-1.0	-1	2
Cc1ccccc1OCc1nnc(SCC(=O)Nc2ccc(N3CCOCC3)c(Cl)c2)n1C	-3%	4.7%	-2	-6	-2.4	-9	-4
CN(C)c1nc2n(c(=O)n1)CCS2	20%	-0.5%	3	16	-0.4	-1	1
O=c1[nH]c(=O)n(Cc2ccccc2)c2c1C(C(F)(F)F)(C(F)(F)F)N=C(c1ccco1)N2	17%	2.0%	10	27	-0.2	2	-3
Clc1cccc(Cl)c1Cn1nnc(-c2cccs2)n1	7%	-1.6%[38.3 µM]	3	-3	-4.5	7	-7
COc1ccc(CCNS(=O)(=O)c2csc(C(N)=O)c2)cc1OC	13%	0.7%	1	-9	0.7	-7	-7
CC(SCC(=O)Nc1ccc(F)cc1)c1nc2ccccc2c(=O)[nH]1 (stereo unspecified)	8%	0.5%	-11	-1	-1.7	0	-10
Nc1cccc(C#Cc2ccc3c(c2)C(=O)/C(=C/c2ccsc2)O3)c1	/	-0.5%	-16	/	-2.2	-12	/
Cc1cccc(NC(=O)COC(=O)c2n[nH]c3ccccc23)c1C	/	0.1%	-1	20	2.1	1	0
N#CCSc1nnc(COc2ccccc2)n1-c1ccccc1	7%	1.6%	-9	-5	0.8	3	-6
Cc1cccc(C)c1OCc1nnc(SCC(=O)NCc2ccccc2)o1	9%	5.1%[38.3 µM]	4	23	3.1	3	-3
C[C@H]1CN([C@@H](C)CO)C(=O)CCCn2nncc2CO[C@@H]1CN(C)S(=O)(=O)c1cn(C)cn1	/	0.4%	5	/	-5.8	2	6
Cc1cc(Br)ccc1NC(=O)C1CCN(C(=O)c2ccco2)CC1	9%	-0.7%	-6	-6	-2.3	6	-16
O=[N+]([O-])c1cccc(/C=N/Nc2nc(NCc3ccccc3)nc(N3CCOCC3)n2)c1	16%	?	2	4	0.9	2	-7
CSCCC(NC(=O)c1ccc(Br)cc1)C(=O)O (stereo unspecified)	16%	0.6%	0	0	-3.7	3	10
COC(=O)c1ccc(Nc2nc(C)nc3c2nnn3Cc2ccccc2)cc1	10%	4.5%	2	-7	9.2	0	2
COc1ccccc1C(=O)NCCC(=O)N(C)CC(=O)Nc1c(Cl)cccc1Cl	/	-4.6%	-17	-13	0.8	5	-10
CCOC(=O)N1CCC(NC(=O)c2cccc3c2C(=O)N(Cc2cccnc2)C3)CC1	18%	2.5%	-1	25	-2.7	2	-1
c1ccc(Cc2nnc3n2N=C(c2ccccc2)CS3)cc1	?	-0.2%	0	9	-1.9	-1	-7
CC(C(=O)NN=C(c1ccccc1)c1ccccc1)N1CCCC1 (stereo unspecified)	0%	-2.5%	/	-3	-3.7	-2	-15
COc1ccccc1N(C)S(=O)(=O)c1ccc(C(=O)OCC(=O)Nc2ccccc2F)cc1	9%	3.0%	-5	-4	-4.6	-5	-6
Cc1cc(NS(=O)(=O)c2ccc(NC(=O)Cc3ccc(Cl)c(Cl)c3)cc2)no1	/	2.7%	?	?	-1.3	?	9
CC1(C)CC(=O)N(CC(=O)N2CCN(c3ncccn3)CC2)c2ccccc2S1(=O)=O	23%	0.2%	0	30	0.9	16	-1
COC(=O)Cn1c(C(F)(F)F)nc2ccccc21	-3%	-0.6%	-15	6	4.1	2	3
CCN1CCN(C(=S)c2ccc(Cl)cc2)CC1	2.2µM*	0.4%	5	25	-3.0	0	-39
Cc1ccc(-c2cc(C(=O)NN3CCOCC3)c3cc(Br)ccc3n2)o1	25µM*	6.0%	3	11	-1.7	8	-5
Cc1cc(C)c2c(CN3CCCCC3)cc(=O)oc2c1	2%	0.1%	2	-1	5.5	3	-1
N#Cc1ccc(CSc2nnc(Nc3ccccc3)s2)cc1	-9%	-1.6%	-1	16	-7.1	0	-26
CSc1ncc(CN2CCN(C(C)C)C(CCO)C2)cn1 (stereo unspecified)	5%	-0.8%	/	-7	-2.0	6	-18
CC(=O)N1CCN(C(=O)c2cccc(S(=O)(=O)N3CCOCC3)c2)CC1	/	-1.0%	0	-8	-6.9	1	-3
COc1ccccc1-c1cc(SC)c(C#N)c(=O)o1	?	10%	/	2	1.2	0	-15
O=c1o[nH]c(-c2ccccc2)c1C=Nc1ccc(Cl)cc1	10%	0.9%	5	-5	-0.4	2	-4
Cc1cc(C)c2nc(N(CCCN(C)C)C(=O)c3ccc4c(c3)CCCC4)sc2c1	/	-2.5%	-16	-12	-2.2	-18	-26
O=c1oc2c3c4c(cc2c2c1CCC2)OCCN4CCC3	0%	2.5%	-18	-17	-0.6	-13	1

From PubChem

Not a hit list; any-hit rate near 3.7%.
